Bioassay records (PubChem)
miR-21 FLuc = raises the signal of a miR-21 reporter. HeLa miR-21 FLuc reporter, luciferase, 48 h. Potency, µM (highest dose often 38.3 µM), without a hit: top-dose reporter change, positive = more light. 340,000 tested, under 10 active; active = well fitted rising curve with a large enough effect; inconclusive = small, poorly fitted or top-dose-only effect; inactive = no such curve, though single readings can be large or run the other way;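 note: % of control where 0% means no effect; miR-21 action dims this reporter so a rising signal means less miR-21 action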
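HeLa cells stably expressing CMV-driven firefly luciferase with a downstream miR-21 binding sequence, endogenously expressing miR-21, were treated with titrations (up to about 40uM final) for 48 hours at 37 degree Celsius. Luciferase luminescence was read after lysis.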
Rango-impB inh = prevents formation of the Rango-importin beta complex; Rango CFP/YFP FRET sensor + importin beta, 45 min; Potency, µM (titrated, usually from 92.2 µM), inactives show at the top dose inhibition of complex formation; hit rate 0.031% among 340,000; AID 540263; active = rising FRET ratio curve, often small or poorly fitted; inconclusive = mostly compound fluorescence or quenching in the first reads; inactive = flat curves in all reads;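 note: potency is the fitted concentration of half-maximal effect; 0% = DMSO wells and 100% = buffer wells lacking importin beta; nearly all actives have a fitted effect of over 15% in size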
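FRET biosensor (snurportin 1 IBB flanked by EYFP and cerulean), 50 nM, with compound 5 min, then 0.125 microM importin beta in PBS, 1 mM DTT, 0.02% Tween-20, 0.1% BSA. CFP/YFP ratio read after 45 min at room temperature; pre-read flags interference.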
GLA inh pH 4.5 = blocks human alpha-galactosidase A at pH 4.5; purified enzyme, 4-MU-alpha-Gal fluorescence, pH 4.5; activity change, negative = inhibition, % at 105 µM; 230,000 tested, under 10 active; inconclusive = small, poorly fitted or top-dose-only inhibition, or a rising curve; inactive = flat fitted curve, though single readings scatter; no compound was filed as active;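 note: 0% = full activity with enzyme and -100% = basal without enzyme; dose as in the result columns while the protocol names 77 µM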
Target sequence (P06280 whole entry, looked up): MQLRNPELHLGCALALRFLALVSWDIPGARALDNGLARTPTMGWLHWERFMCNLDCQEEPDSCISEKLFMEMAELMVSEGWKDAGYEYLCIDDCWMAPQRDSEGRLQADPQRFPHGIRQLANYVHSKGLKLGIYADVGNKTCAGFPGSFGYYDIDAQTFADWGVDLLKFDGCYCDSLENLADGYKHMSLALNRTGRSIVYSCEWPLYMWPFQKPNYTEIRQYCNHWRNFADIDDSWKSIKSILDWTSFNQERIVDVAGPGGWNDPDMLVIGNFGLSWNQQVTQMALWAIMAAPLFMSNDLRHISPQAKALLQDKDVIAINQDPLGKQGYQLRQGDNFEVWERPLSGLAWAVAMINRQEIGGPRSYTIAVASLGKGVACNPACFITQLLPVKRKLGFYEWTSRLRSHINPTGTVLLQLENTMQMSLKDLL
Rango release inh = inhibition of RanGTP-driven Rango-importin beta dissociation; O95149+P62826; Biochemical FRET Rango-importin beta, RanGTP-induced dissociation; Potency, µM (series often up to 46.1 µM), for inactives: top-dose activity change, negative = inhibition; hit rate 0.071% among 340,000; AID 540253; active means falling FRET ratio curve, often poorly fitted, with flat reads before Ran was added; inconclusive means other falling curves, or compound fluorescence or quenching; inactive means flat or rising ratio curve;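 note: potency is the fitted concentration of half-maximal effect; % of control where 0% means no effect; nearly all actives have a fitted effect of over 45% in size; -100% = wells without RanGTP and RCC1; the record marks most hits as doubtful in a second field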
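Compounds sat 5 min at room temperature with 0.1 uM Rango biosensor plus 0.25 uM importin beta, then FRET pre-read. RanGTP-RCC1 (0.6 uM Ran, 2mM GTP, 0.2 uM RCC1) added for 45 min, and the CFP/YFP post-read measured blocked complex dissociation.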
Active calls of the source: *; ? = inconclusive; / = no result given. Not all compounds are listed (hit frequency here may not be typical).

miR-21 FLuc	Rango-impB inh	GLA inh pH 4.5	Rango release inh	molecule
8.5%	-4.3%	2.0	-12.3%	CC(=O)c1c(C)[nH]c(C(=O)CN2C(=O)NC(CCc3ccccc3)C2=O)c1C (stereo not given)
-6.0%	0.0%	/	6.7%	Cc1ccc(S(=O)(=O)Nc2c(C)n(C)n(-c3ccccc3)c2=O)c(C)c1
/	-0.9%	/	2.7%	CCCCN(C(=O)c1ccc(N2CCCC2=O)cc1)c1c(N)n(CCC)c(=O)[nH]c1=O
1.7%	-1.7%	5.0	-1.1%	COc1ccc(CNC(=O)C2CCN(S(=O)(=O)c3ccc(-c4nn[nH]n4)cc3)CC2)cc1
-1.8%	3.3%	/	-5.7%	CCOC(=O)c1ccc(NC(=O)c2cc(C)nc3ccccc23)cc1
?	0.8%	/	0.5%	O=C(C#Cc1ccccc1)c1ccco1
-6.4%	-6.1%	4.3	-7.6%	CC(=O)C1CCN(Cc2ccccc2)CC1
-0.8%	0.4%	4.8	-11.5%	CCOC(=O)c1ccccc1NC(=O)COC(=O)C(CC(C)C)NC(N)=O (stereo not given)
-16.7%	2.3%	-1.9	-5.0%	COc1ccc(NC(=O)c2ccccc2NC(=O)CSc2ccc(C)cc2)cc1
1.4%	-0.8%	/	-7.3%	CCOc1ccc(N(CC(=O)NC2CCCC2)C(=O)CCC(=O)Nc2nc(C)cs2)cc1

Further records
miR-21 FLuc	Rango-impB inh	GLA inh pH 4.5	Rango release inh	molecule
-6.8%	4.3%	-4.0	-8.0%	CC(C)C(OC(=O)c1cc2c(s1)CCCCC2)C(=O)NC(N)=O (stereo not given)
3.9%	2.0%	9.7	-1.0%	CCSc1nnc(NC(=O)CSc2nncc(=O)n2N)s1
-4.2%	-3.4%	/	9.8%	O=C(CN1CCN(C(=O)c2ccco2)CC1)Nc1ccc(Br)cc1
0.1%	2.0%	5.0	-1.0%	COC(=O)c1ccc(/C=N/OCC(=O)NCCc2ccc(OC)c(OC)c2)cc1
0.7%	1.8%	/	-8.7%	O=C(CCCc1nc(-c2ccc(Cl)cc2)no1)NC1CCCCC1
-15.1%	-1.6%	3.1	-6.0%	O=C(O)c1cccc(NC(=S)N/N=C/c2c[nH]c3ccccc23)c1
/	3.8%	/	-3.7%	COc1ccc(Cl)cc1-c1nc(SCC(=O)NC2CCS(=O)(=O)C2)n[nH]1 (stereo not given)
/	-3.5%	/	-7.0%	CCNC(=O)Nc1cc(S(=O)(=O)Nc2ccc(OC)cc2)ccc1N1CCOCC1
-30.7%	2.1%	/	-2.7%	O=C(NCCC(=O)N1CCCC1)c1ccccc1Cl
-26.5%	-0.1%	-8.7	21.9%	COc1ccccc1Cc1nc(-c2ccc(C)cc2)no1

More results follow.
miR-21 FLuc	Rango-impB inh	GLA inh pH 4.5	Rango release inh	molecule
-62.7%	-0.7%	0.2	-5.8%	Cc1ccc(C(=O)Cn2cnc3ccccc3c2=O)cc1
-9.6%	0.2%	0.3	0.0%	Cc1cccc(C(=O)NNC2=C(C(=O)C(F)(F)F)CCC2)c1O
-16.6%	58µM*	-2.4	10.4%	O=C(c1ccccc1)c1ccc(O)cc1O
-27.4%	0.1%	/	5.1%	Cc1cc(NCc2ccccc2)n2ncc(-c3ccccc3)c2n1
3.5%	?	1.4	?	CN(C)S(=O)(=O)c1cc(NC(=O)COC(=O)/C=C/c2ccco2)ccc1Cl
-7.6%	0.0%	8.8	0.8%	CC1CC(NC(=O)/C=C/C(=O)O)CC(C)(C)C1 (stereo not given)
-14.3%	0.4%	-7.5	4.0%	O=C(O)c1ccc(N/C(=N\S(=O)(=O)c2ccc(Cl)cc2)c2ccccc2)cc1
-15.5%	-0.9%	10.5	1.4%	CCOC(=O)c1ccc(CSc2nnc(-c3ccncc3)n2N)cc1
-8.8%	-1.8%	-5.3	25.7%	CCCCCC(=O)N/N=C/c1cccs1
19.1%	1.2%	-16.2	13.1%	Cn1c(=O)n(CCc2ccccc2)c(=O)c2c1nc1n2CCCN1CCc1ccccc1

One compound at a time, as listed above.
O=C(O)c1ccc(N/C(=N\S(=O)(=O)c2ccc(Cl)cc2)c2ccccc2)cc1 is listed with miR-21 FLuc = -14.3%; Rango-impB inh = 0.4%; GLA inh pH 4.5 = -7.5; Rango release inh = 4.0%
CC1CC(NC(=O)/C=C/C(=O)O)CC(C)(C)C1 (stereo not given) is listed with miR-21 FLuc = -7.6%; Rango-impB inh = 0.0%; GLA inh pH 4.5 = 8.8; Rango release inh = 0.8%
O=C(c1ccccc1)c1ccc(O)cc1O is listed with miR-21 FLuc = -16.6%; Rango-impB inh = 58µM*; GLA inh pH 4.5 = -2.4; Rango release inh = 10.4%

Following part:
miR-21 FLuc	Rango-impB inh	GLA inh pH 4.5	Rango release inh	molecule
-1.7%	-1.4%	-1.1	9.7%	CN(C)NC(=S)Nc1cccc(Cl)c1
-9.8%	4.2%	-2.9	?	Cc1cccc(CSc2ccc3nnc(-c4ccccn4)n3n2)c1
/	3.1%	/	6.2%	CN1C=CC(=O)[C@@H](OC(=O)Nc2ccc(Br)cc2)[C@H]1c1ccccc1Br
2.1%	4.8%	1.8	-8.2%	O=C1OCc2ccc(NC(=O)C3CC3)cc21
/	?	/	-15.5%	CCOc1ccc(C(=O)CCC(=O)NNC(=O)CCN2CCN(c3ccccc3)CC2)cc1
0.8%	4.5%	-3.7	1.1%	O=C(N/N=C/c1ccncc1)c1cccc(NC(=O)c2ccc(Cl)cc2)c1
-9.7%	1.5%	-5.6	2.6%	O=C(N/N=C/c1ccc(Sc2nc3ccccc3s2)c([N+](=O)[O-])c1)c1ccccn1
-14.4%	-5.0%	-2.8	3.3%	N=C1C(c2ccc(Br)cc2)=C(O)C2CCc3ccccc3N12 (stereo not given)
-29.8%	4.9%	1.0	18.6%	NC(=O)N/N=C/c1ccc(OCc2cccc(Cl)c2)cc1
-44.1%	6.6%	4.5	-13.4%	NC(=O)C(=O)N/N=C1\CCc2ccccc21

Some entries already given, reduced to miR-21 FLuc, Rango release inh and Rango-impB inh.
SMILES,miR-21 FLuc,Rango release inh,Rango-impB inh
Cc1cccc(CSc2ccc3nnc(-c4ccccn4)n3n2)c1,-9.8%,?,4.2%
CCOc1ccc(C(=O)CCC(=O)NNC(=O)CCN2CCN(c3ccccc3)CC2)cc1,/,-15.5%,?
NC(=O)N/N=C/c1ccc(OCc2cccc(Cl)c2)cc1,-29.8%,18.6%,4.9%
CN1C=CC(=O)[C@@H](OC(=O)Nc2ccc(Br)cc2)[C@H]1c1ccccc1Br,/,6.2%,3.1%
NC(=O)C(=O)N/N=C1\CCc2ccccc21,-44.1%,-13.4%,6.6%
O=C1OCc2ccc(NC(=O)C3CC3)cc21,2.1%,-8.2%,4.8%

Other results
miR-21 FLuc	Rango-impB inh	GLA inh pH 4.5	Rango release inh	molecule
8.3%	0.2%	/	0.2%	Cc1occc1C(=O)N1CCN(c2ccc([N+](=O)[O-])cc2)CC1
/	-1.1%	/	2.6%	O=C(NCc1ccccc1Cl)c1ccc(S(=O)(=O)NCc2ccco2)cc1
/	2.6%	/	12.2%	COc1ccc(C(=O)Nc2cccc3c2CCCC3)c(OC)c1
/	-2.0%	/	-2.4%	CN(CC(=O)Nc1ccc(F)c(F)c1F)C(=O)C1CCCC1
0.3%	1.7%	/	22.9%	Cc1ccccc1OCC(=O)NC(=S)Nc1ccccc1N1CCN(S(C)(=O)=O)CC1
0.7%	-1.8%	-1.5	-1.9%	CCOc1ccc(/C=N/NC(=O)c2c(-c3ccccc3)noc2C)cc1
-51.6%	1.8%	-2.9	-1.3%	Cc1c(OCc2ccc([N+](=O)[O-])cc2)ccc2c3c(c(=O)oc12)CCC3
-18.4%	-1.9%	3.6	-17.0%	O=C(CCS(=O)(=O)c1ccccc1)Nc1ccc(-c2nc3ccccc3s2)cc1
-15.3%	4.1%	/	7.6%	O=C(Oc1ccc(Oc2ccccc2)cc1)N1CCC(O)CC1
-6.1%	-5.4%	-3.2	26.0%	CCCCCNCc1ccc(Br)cc1

More records:
miR-21 FLuc	Rango-impB inh	GLA inh pH 4.5	Rango release inh	molecule
-1.8%	-0.7%	0.4	20.5%	Cc1ccccc1CN1C[C@@H]2C[C@@H](c3cn[nH]c3-c3ccc(F)cc3)N3CCC[C@@]23C1=O
-1.8%	-0.2%	5.4	3.1%	Cc1cc(NC(=O)c2ccc(F)cc2)n(CCOC(=O)c2ccc(F)cc2)n1
3.4%	-0.4%	-4.7	-5.7%	Cc1onc(-c2c(F)cccc2Cl)c1C(=O)N=C(N)N1CC(C)OC(C)C1 (stereo not given)
-1.3%	0.6%	-9.7	?	CC(=O)Nc1cccc(-c2csc(Nc3ccc(Cl)cn3)n2)c1
-9.1%	?	-0.2	?	FC(F)(F)c1ccc(Cl)c(N/N=C/c2ccc(N3CCOCC3)s2)c1
/	0.5%	/	3.1%	N#Cc1ccc(S(=O)(=O)NCCc2ccncc2)cc1
/	1.0%	/	0.4%	COc1cc(NC(=O)CN2C(=O)COc3ccccc32)cc(OC)c1
9.1%	-0.9%	6.9	16.7%	COc1cc(C2CC(=O)Nc3n[nH]c(-c4ccccc4)c32)cc(OC)c1OC (stereo not given)
/	2.8%	/	0.2%	O=C(CN1C(=O)NC2(CCCC2)C1=O)OCc1cccc(Br)c1
-0.1%	-2.8%	0.7	16.5%	CCOC(=O)c1ccc(N2C(=O)CC(Nc3ccc(CCO)cc3)C2=O)cc1 (stereo not given)

Next section:
miR-21 FLuc	Rango-impB inh	GLA inh pH 4.5	Rango release inh	molecule
-6.0%	-2.0%	-8.3	0.6%	C=C(C)Cn1c(C(C)NC(=O)CCC)nc2ccccc21 (stereo not given)
-9.7%	1.9%	/	-6.0%	Cc1cc(=O)[nH]c2ccc(S(=O)(=O)Nc3ccccc3)cc12
0.1%	?	-3.5	?	CC(C)C(=O)Nc1ccc(C(=O)N/N=C/c2cc(Br)cc(Br)c2O)cc1
6.1%	5.3%	-0.9	-7.6%	FC(F)Oc1ccc(NC(=S)NCc2cccnc2)cc1
-8.2%	?	/	?	CCN1CCN(c2nc(-c3ccccc3)c3ccccc3n2)CC1
-53.1%	-1.6%	/	0.0%	O=C(NCc1ccc2c(c1)OCO2)Nc1cccc(Cl)c1
-5.5%	3.2%	-2.6	2.7%	Cc1cc(C(=O)COC(=O)c2csc3c2CCCC3)c(C)n1C
1.4%	-3.6%	-1.5	-1.9%	CC(C)NC(=O)CSc1nnc(C2CC2)n1-c1ccccc1
-6.6%	-1.7%	-3.6	0.7%	COc1ccc(C(C(=O)NC2CCCCC2)N(C(=O)c2sc(C)nc2C)c2ccccc2)cc1 (stereo not given)
/	0.8%	/	11.7%	O=C(CCNC(=O)c1ccccc1Cl)NCC(c1ccc(F)cc1)N1CCOCC1 (stereo not given)

Shown as a hit in Rango-impB inh, of those listed so far:
miR-21 FLuc	Rango-impB inh	GLA inh pH 4.5	Rango release inh	molecule
-16.6%	58µM*	-2.4	10.4%	O=C(c1ccccc1)c1ccc(O)cc1O

Following part
miR-21 FLuc	Rango-impB inh	GLA inh pH 4.5	Rango release inh	molecule
-16.4%	1.1%	0.9	3.7%	Cc1ccc(-c2cc(C(F)F)nc(NCc3cccs3)n2)cc1
-11.3%	3.0%	/	-14.4%	CC(C)C(=O)Nc1ccc(NC(=S)NC(=O)c2ccccc2F)cc1
20.3%	1.3%	-6.8	-4.4%	O=S(=O)(NCC(Nc1ccccc1)c1ccccc1)c1ccc(Cl)cc1 (stereo not given)
-5.6%	-0.7%	-10.0	41.1%	Cc1ccc2c(n1)CC(C)(C)CC2=O
1.7%	8.3%	0.2	-6.5%	C[C@H](N)c1nnc(SCC(=O)c2ccc(Cl)cc2)o1
1.5%	-0.4%	-4.2	-14.9%	COc1ccc(S(=O)(=O)CCC(=O)N2CCN(c3ccccc3F)CC2)cc1
